# Screens deposited in PubChem by ICCB-Longwood Screening Facility, Harvard Medical School.
# Choline anaer gr = choline-fed anaerobic bacterial growth inhibition; Gram-negative bacterium anaerobic choline minimal medium, absorbance growth; active compounds read low; many inactives read as strong as hits in the columns shown; calls only; 0.2% of 55,000 active; AID 1963822;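 active = growth z-score on choline under -2 at 7 or 20 h with little or no fall on glycerol, limits in tiers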;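 note: stock transfer was 300 nL into about 50 µL; the organism is E. coli; final concentration not given here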
# Choline anaer gr early = recorded beside Choline anaer gr, whose call it bears; z-score; measured here: choline growth z-score, timepoint 1;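 score of optical density at 7 h as mean of two plates; lower means less growth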
# Starred values were filed as active, the others as inactive; i = inactive; & = joins results of further samples.
# Start of the data: the first 6 entries, ahead of the listing:
SMILES,Choline anaer gr,Choline anaer gr early
CCCNCc1ccc(OCc2ccc3c(c2)n(C)c(=O)n3C)c(OC)c1,i,0.52
COc1ccc(-n2nnnc2C2(Nc3ccc4c(c3)OCCO4)CCCC2)cc1OC,i,-0.4
Cc1c(-c2nnc(C3CC3)o2)c(S(=O)(=O)NC2CCCC2)c(C)n1C,i,-0.2
CCOc1ccc(C(C)(O)C(CN2CCOCC2)c2ccc(Cl)cc2)cc1 (stereo not given),i,-0.18
CC(=O)Nc1ccc(CC(=O)N2CCCC(c3nc(-c4ccc(NC(C)=O)cc4)no3)C2)cc1 (stereo not given),i,-0.36
Cc1[nH]nc(-c2c(C)sc(C)c2S(=O)(=O)Nc2cccc(Br)c2)c1C,i,1.4

# The whole of this part, previewed entries included:
SMILES,Choline anaer gr,Choline anaer gr early
CCCNCc1ccc(OCc2ccc3c(c2)n(C)c(=O)n3C)c(OC)c1,i,0.52
COc1ccc(-n2nnnc2C2(Nc3ccc4c(c3)OCCO4)CCCC2)cc1OC,i,-0.4
Cc1c(-c2nnc(C3CC3)o2)c(S(=O)(=O)NC2CCCC2)c(C)n1C,i,-0.2
CCOc1ccc(C(C)(O)C(CN2CCOCC2)c2ccc(Cl)cc2)cc1 (stereo not given),i,-0.18
CC(=O)Nc1ccc(CC(=O)N2CCCC(c3nc(-c4ccc(NC(C)=O)cc4)no3)C2)cc1 (stereo not given),i,-0.36
Cc1[nH]nc(-c2c(C)sc(C)c2S(=O)(=O)Nc2cccc(Br)c2)c1C,i,1.4
CN1c2cc(Cl)ccc2-c2nc(SCC(=O)NC3CCCC3)ncc2S1(=O)=O,i,1.53
CCOc1ccc(-c2nnc3sc(-c4cccnc4)nn23)cc1,i,-0.67
O=C(c1ccc(Br)cc1)N1CCN(CCc2ccncc2)CC1,i,-1.59
O=C(CCCN1C(=O)c2cccnc2Sc2ccccc21)NC1CCN(Cc2ccccc2)CC1,i,-0.38
Cc1cccc(-c2cc(N3CCN(C(=O)NC(C)(C)C)CC3)ncn2)c1,i,1.14
CCN1C(=O)c2ccccc2S(=O)(=O)c2ccc(C(=O)N3CCN(c4ccccc4OC)CC3)cc21,i,0.3
COc1ccc(OC)c(NC(=O)CSc2nnc3ccc(C(=O)Nc4ccc(C)cc4)cn23)c1,i,-2.3
Cn1cc(-c2nc(-c3ccccc3)no2)c(=O)c2cc(F)c(N3CCOCC3)cc21,i,-6.63
COc1ccc(OC)c(S(=O)(=O)N2CCN(c3nc4ccccc4n4cccc34)CC2)c1,i,1.01
O=C(NCc1ccc(F)cc1)C1CCCN(c2ccc3cc(S(=O)(=O)N4CCCC4)ccc3n2)C1 (stereo not given),i,0.13
O=C(CCc1nc(CSc2nc3ccccc3[nH]2)no1)Nc1ccc(F)c(Cl)c1,i,-2.01
Cc1ccccc1N1NC(=O)C(C)(C)C1=O,i,0.24
CCCNS(=O)(=O)c1c(C)sc(C)c1-c1cc(C(F)(F)F)on1,i,-0.25
CC1(C)S[C@H]2C(NC(=O)C(NC(=O)N3CCN(S(C)(=O)=O)C3=O)c3ccccc3)C(=O)N2C1C(=O)O (stereo not given in full),i,-0.19
CCCc1ccc(S(=O)(=O)n2cc3c(=O)n(C)c(=O)n(C)c3n2)cc1,i,1.51
Cc1ccc2cc3c(nc2c1)N(C(=O)C1CCCCC1)CC3,i,-0.73
COc1ccc(S(=O)(=O)N(C(=O)c2ccc(Cl)cc2)c2ccc3oc(=O)sc3c2)cc1OC,i,0.17
CC1CN(C(=O)NCC2CCCO2)c2ccccc2O1 (stereo not given),i,-1.04
CCc1ccc(-n2ncc(-c3cc(C(=O)Nc4ccccc4C(=O)OC)c4ccccc4n3)c2C)cc1,i,2.09
COc1ccc(C2CC(=O)N(c3ccc(C)c(F)c3)C(=O)C2)cc1,i,-0.82
O=C(CCn1cnc2cc(S(=O)(=O)N3CCCCC3)ccc21)N1CCN(c2ccccn2)CC1,i,-0.49
Clc1cccc(-c2csc(Cc3nc(-c4ccccc4)no3)n2)c1,i,-0.18
COc1ccc(CNC(=O)c2ccc(-c3nnc(C(=O)Nc4cccc(F)c4)s3)cc2)cc1,i,-1.13
Cc1cc(N2CCN(C)CC2)nc(N2CCN(S(=O)(=O)c3ccc(Br)cc3)CC2)n1,i,0.55

# Reprinted at random: five records from the list.
SMILES,Choline anaer gr,Choline anaer gr early
O=C(CCn1cnc2cc(S(=O)(=O)N3CCCCC3)ccc21)N1CCN(c2ccccn2)CC1,i,-0.49
CCCc1ccc(S(=O)(=O)n2cc3c(=O)n(C)c(=O)n(C)c3n2)cc1,i,1.51
Cc1cc(N2CCN(C)CC2)nc(N2CCN(S(=O)(=O)c3ccc(Br)cc3)CC2)n1,i,0.55
O=C(CCc1nc(CSc2nc3ccccc3[nH]2)no1)Nc1ccc(F)c(Cl)c1,i,-2.01
Cc1ccccc1N1NC(=O)C(C)(C)C1=O,i,0.24

# (next part)
SMILES,Choline anaer gr,Choline anaer gr early
CCOC(=O)c1c(S(=O)(=O)N2CCC(C(=O)Nc3ccc(F)c(Cl)c3)CC2)c(C)n(C)c1C,i,0.52
CC(=O)Nc1cc(-c2nc(Cn3c(=O)oc4ccccc43)no2)ccc1C,i,0.19
COc1ccc(OC)c(NS(=O)(=O)c2ccc(N3CCCCS3(=O)=O)cc2)c1,i,0.26
Nc1nc(OCC2CCCCC2)c2[nH]cnc2n1,i,-0.21
COc1ccccc1-c1c(C)nn2c(SCC(=O)NCCc3ccc(Cl)cc3)cc(C)nc12,i,-2.28
Cn1c(=O)c2cn(S(=O)(=O)c3cccc4nsnc34)nc2n(C)c1=O,i,1.22
CC(C)NC(=O)c1c2c(nn1C)-c1ccccc1SC2,i,0.23
CC(C)NC(=O)CCn1cnc2onc(-c3cccc(F)c3)c2c1=O,i,0.08
CCn1c(C(=O)N2CCN(c3ccccn3)CC2)cc2sccc21,i,-0.14
Cc1ccccc1S(=O)(=O)N1CCCN(c2ccc(=O)n(-c3ccc(F)cc3)n2)CC1,i,-0.84
CCOC(=O)C1CCCN(c2c(NCC3CCCN3CC)c(=O)c2=O)C1 (stereo not given),i,0.16
Cc1cccc(-c2nc(CCN(C)S(=O)(=O)c3cccc4nsnc34)no2)c1,i,-0.56
Cn1c(=O)n(CC(=O)N2CCCC2)c(=O)c2cc(S(=O)(=O)N3CCOCC3)ccc21,i,-0.26
COc1ccccc1C(Nc1nc(C)cc(C)n1)c1cc(C)sc1NC(=O)c1ccccc1 (stereo not given),i,0.63
Cc1cccc(-c2nccc(Oc3ccc(C(=O)NC4CCCC4)cc3)n2)c1,i,1.43
COc1ccc2[nH]c3c(=O)n(Cc4nc(C5CC5)no4)cnc3c2c1,i,1.01
Cc1cc(=O)[nH]c(-n2nc(C)cc2NC(=O)COc2ccccc2)n1,i,0.7
Cn1nnc2c(Nc3cccc(Cl)c3)ncnc21,i,0.83
CN1C(=O)c2cc(C(=O)N3CCCCC3)nn2CC1(C)C(=O)NC1CCCCC1 (stereo not given),i,-0.76
CCOC(=O)/C=C(C)/C=C/C=C(C)/C=C/c1c(C)cc(OC)c(C)c1C,i,0.58&0.36
O=C(N[C@H](Cc1ccccc1)C(=O)NCc1cscn1)c1ccccc1Br,i,1.17
O=C(NCC1CCCO1)c1n[nH]c2c1CCCCCC2 (stereo not given),i,-0.15
O=c1cnnc(Nc2ccc(Cl)cc2)[nH]1,i,0.52
CCCCCCCN(CC)CCCC(O)c1ccc(NS(C)(=O)=O)cc1 (stereo not given),i,0.71
Cc1ccccc1-c1nn2c(=O)cc(N3CCN(S(=O)(=O)c4c(C)noc4C)CC3)nc2s1,i,2.52
COC1C=CO[C@@]2(C)Oc3c(C)c(O)c4c(O)c(c5c(nc6cc(C)ccn65)c4c3C2=O)NC(=O)C(C)=CC=CC(C)C(O)C(C)C(O)C(C)C(OC(C)=O)C1C (stereo not given in full),i,-2.41
Cc1ccc(-c2noc(CCn3nc(-c4ccc(C)c(C)c4)ccc3=O)n2)cc1,i,-0.58
O=[N+]([O-])c1ccc(O)c2ncccc12,i,-3.02
CCCCSc1nnc2n(Cc3ccc(OCC)c(OCC)c3)c(=O)c3sccc3n12,i,-0.38
CCc1ccc(C2=Nc3cccnc3N(CC(=O)NC(C)CCc3ccccc3)C(=O)C2)cc1 (stereo not given),i,-0.33

# Look-ups from the list:
# `O=[N+]([O-])c1ccc(O)c2ncccc12` | Choline anaer gr early: -3.02
# `COC1C=CO[C@@]2(C)Oc3c(C)c(O)c4c(O)c(c5c(nc6cc(C)ccn65)c4c3C2=O)NC(=O)C(C)=CC=CC(C)C(O)C(C)C(O)C(C)C(OC(C)=O)C1C` (stereo not given in full) | Choline anaer gr early: -2.41

# Further structures follow.
SMILES,Choline anaer gr,Choline anaer gr early
CCCCC[C@H](O)/C=C/[C@H]1CCC(=O)[C@@H]1CCCCCCC(=O)O,i,-0.49
Cc1sc(-c2ccno2)cc1S(=O)(=O)NCCC(C)C,i,0.55
CCn1c(SCc2nc(-c3ccccc3)no2)nnc1-c1ccc2c(c1)OCCCO2,i,-0.42
CC1CN(C(=O)Nc2ccc(C(=O)NCc3ccccc3)cc2)c2ccccc2S1 (stereo not given),i,-0.59
O=C(NCc1ccc(F)cc1)Nc1c[nH]c(=O)[nH]c1=O,i,0.06
Cc1nc(-c2ccccc2)cc(N2CCN(Cc3ccc4c(c3)OCO4)CC2)n1,i,0.32
CCN(c1ccc2sc(C(=O)N3CCN(c4ccccc4F)CC3)cc2c1)S(C)(=O)=O,i,0.8
CCOc1ccccc1NCc1nc2nc(C)c(C)c(=O)n2[nH]1,i,0.58
Cc1nc2ccccc2n1Cc1nnc2n1N=C(N)CS2,i,0.71
Cc1ccc(-c2cc(-c3nc(-c4ccc5c(c4)OCO5)no3)[nH]n2)c(C)c1,i,0.01
Cc1sc(C)c(S(=O)(=O)NCC2CCCO2)c1-c1cc(C(F)(F)F)on1 (stereo not given),i,-0.97
O=C(C1CCCN(C(=O)C2CCCC2)C1)N1CCOCC1 (stereo not given),i,0.78
Cn1c(CN(c2ccc(F)cc2)S(C)(=O)=O)nnc1SCC(=O)Nc1ccc(F)cc1,i,0.75
Cc1ccc(-c2noc(-c3cccnc3N3CCCC3)n2)cc1,i,1.01
CCOCCOC(=O)c1ccc2c(c1)N(Cc1ccc(OC)cc1)C(=O)c1ccccc1S2,i,2.18
Cc1ccc(-n2nnc(C(=O)OCc3ccc(Cl)cc3)c2C)cc1Cl,i,1.89
Cc1ccc(-c2noc(C3CCN(C(=O)c4sc(C)nc4C)CC3)n2)cc1,i,-0.42
Cc1ccc(C(=O)NCc2nc(-c3ccc4c(c3)ncn4C3CCCC3)no2)cc1,i,-0.12
Cc1ccc(CNc2ccc3nnc(CCNC(=O)c4ccccc4F)n3n2)cc1,i,-0.44
O=C(Cc1ccsc1)N1CCN(c2ncnc3c2CCC3)CC1,i,-0.04
COc1cccc(Cn2nc3c(S(=O)(=O)N4CCCC4)cccn3c2=O)c1,i,-0.02
Cc1cccc(-c2noc(Cn3nc(-c4ccccc4)ccc3=O)n2)c1,i,-0.49
O=C(NCCCN1CCCCCC1)C(c1ccccc1)C1CCCCC1 (stereo not given),i,0.02
O=C1CC(c2nc3ccccc3n2Cc2cccnc2)CN1c1cccc(Cl)c1 (stereo not given),i,-1.01
COc1cccc(-c2noc(-c3cccnc3)n2)c1,i,-1.27
Brc1ccc(-c2csc(Nc3ccccn3)n2)cc1,i,2.15
CCCc1cc(Sc2ccc(NC(=O)Nc3ccc(F)cc3F)cc2)n2ncnc2n1,i,-0.21
COC(=O)c1sc2ncccc2c1N,i,-1.3
O=S(=O)(c1ccc(Cl)cc1)N1CCC2(CC1)NCCN=C2NCc1ccccc1,i,-0.13
CCCNC(=O)Cc1c(C)nc2nc(CC)nn2c1C,i,-1.14
CC(C)NC(=O)Cn1c(=O)n(CC2CCC(C(=O)N3CCCCC3)CC2)c(=O)c2sccc21 (stereo not given),i,-0.86
Cc1oc2ncnc(N3CCCC(C(=O)N4CCC(C(N)=O)CC4)C3)c2c1C (stereo not given),i,-0.34
CC(NC(=O)c1ccccc1)c1nc(-c2ccc3c(c2)Sc2ccccc2C(=O)N3C2CC2)no1 (stereo not given),i,0.36
O=C(CSc1ncnc2nc(N3CCSCC3)sc12)N1CCc2ccccc2C1,i,-0.04
Cc1ccc(CN2CCN(CC(=O)Nc3ccc(C)cn3)C(=O)C2=O)cc1,i,-0.64
COc1ccc(C2CC(=O)N(c3ccc(OC)c(OC)c3)C(=O)C2)cc1OC,i,-2.05
CCOc1ccccc1NC(=O)c1sc2ncnc(N3CCN(c4ccccn4)CC3)c2c1C,i,0.57
O=C(Cc1csc(NC(=O)C2CC2)n1)NCc1ccncc1,i,-0.74
Cc1cc(C)c2nc(C)cc(C(=O)NC3CC3)c2c1,i,0.53
CCOc1ccc(N(Cc2nc3nc(C)cc(C)n3n2)C(=O)COc2ccccc2)cc1,i,-0.9
O=C1CCCc2[nH]c(=O)c(C(=O)Nc3cccc(Cl)c3)cc21,i,1.15
CCC(C)NC(=O)CCCn1nc(-c2ccccc2)c2cc(Cl)ccc21 (stereo not given),i,1.18
CCCn1nnc2cc(C(=O)NC(C)C(=O)Nc3ccc(S(N)(=O)=O)cc3)ccc21 (stereo not given),i,-0.28
Cc1c(-c2cnccn2)ssc1=S,i,1.1
Cc1cc(C)c(S(=O)(=O)Nc2cccc(C(=O)N3CCCC(C(=O)NC4CC4)C3)c2)c(C)c1 (stereo not given),i,-0.25
COc1ccc(CNC(=O)CCCN2C(=O)CCn3nc(C)cc32)cc1,i,-1.24
COCCN1C(=O)c2c(C)nc3ccccc3c2C1=O,i,-0.71
O=C(Nc1ccc(N2CCOCC2)cc1)C1CCCN(c2ccnc(-c3ccc(F)cc3)n2)C1 (stereo not given),i,0.45
COc1cc2c(=O)n(Cc3ccc(C(=O)NC4CCCC4)cc3)c(=O)n(Cc3ccc(F)cc3)c2cc1OC,i,0.68
COC(=O)CC(=O)Nc1c(C)nc2sccn2c1=O,i,0.45
CCCN1C(=O)c2ccccc2Sc2cc(NC(=O)c3cccc(Cl)c3)ccc21,i,0.08
CCCC(C(=O)Nc1cc(OC)ccc1OC)N1Cc2ccccc2C1=O (stereo not given),i,-0.12
Cc1csc(-c2cc(S(=O)(=O)Nc3cc(Cl)ccc3F)cn2CC(=O)N2CCCC2)n1,i,-0.46

# Not all compounds are listed (hit frequency here may not be typical).
